Bioassay records as filed in PubChem.
TRPV1 potentiator = HTS Assay for Compounds that Act as Potentiators of the Vanilloid Receptor 1; TRPV1-expressing cells, Fluo-8 calcium influx, capsaicin EC20 potentiation; host cell line not named in the record; control for the full effect not named in the record; potentiation, % at 8.33 µM; 320,000 compounds, 0.02% hits; active means potentiation above 80%; inconclusive means 30% to 80%; inactive means below 30%; note: 0% is about no effect
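Fluo-8 calcium influx in TRPV1-expressing cells, kinetic read (ex 480/em 520 nm). Compound added and read 3 min for agonist activity, followed by capsaicin at EC20 final and 2 min further read for enhancement.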
PINK1 expr mod = A Quantitative High throughput Screen to Identify Chemical Modulators of PINK1 Expression | Potency, µM (highest dose often 76.6 µM), inactives show top-dose activation (PINK1 increase), hits mostly activators | PINK1 immunofluorescence, high-content cytometry, 24 h | 410,000 compounds, 0.2% hits; active = well fitted activation curve with a large enough effect; inconclusive = small, poorly fitted or top-dose-only effect; inactive = flat fitted curve, though single readings scatter; cell line not stated here;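 note: potency is the fitted concentration of half-maximal effect; % of control where 0% means no effect; nearly all actives have a fitted effect of over 65% in size; a mitochondrial uncoupler was the plate control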
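Stable cell line, 250 cells/well, 12 h attachment; compounds pinned at 5 concentrations, 24 h; CCCP control. Fixed with nuclear dye, primary antibodies 12 h at 10 degrees C, secondary plus cell stain; laser-scanning cytometer read.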
D2 ag = Beta-Arrestin HTS for Positive Allosteric Modulators of the Human D2 Dopamine Receptor: Agonists; D(2) dopamine receptor (Homo sapiens), P14416; DiscoveRx PathHunter D2 beta-arrestin, luminescence, 90 min; 100% = 57 uM dopamine signal; activation, % (concentration not given with the values); 360,000 compounds, 0.084% hits; in the data active = activation above about 40%; inconclusive = about 15% to 40%; inactive = below about 15%; note: the text of the record calls up to 30% inactive
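DiscoveRx PathHunter D2 beta-arrestin cells (2,100/well) attached overnight, then compound-stimulated 90 min at 37 C in HBSS/10 mM HEPES/0.1% Tween-20 buffer; beta-galactosidase complementation read by luminescence after 1 h at ambient temperature. Dopamine 57 uM final (EC100) as control.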
D2 potentiator = Beta-Arrestin HTS for Positive Allosteric Modulators of the Human D2 Dopamine Receptor: Potentiators. D(2) dopamine receptor (Homo sapiens), P14416. DiscoveRx D2 beta-arrestin cells, luminescence, 90 min; 100% = 57 uM dopamine signal. potentiation, % (test concentration not listed). 360,000 compounds, 0.23% hits; active = potentiation of 50% or more; inconclusive = 30% to 50%; inactive = 30% or less;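 note: compound concentration not given in the record; tested on top of an EC20 dose of dopamine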
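PathHunter D2 cells, attached overnight at 37 deg C, received compound in DMSO plus dopamine at EC20 (50 nM final) for 90 min at 37 deg C. Beta-arrestin recruitment was read as luminescence after 1 h with detection reagent at ambient temperature.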
Six1-Eya2 blk = qHTS Assay for Inhibitors of the Six1/Eya2 Interaction | AlphaScreen GST-Six1/His-Eya2 binding, biochemical; stronger effect = lower value; control for the full effect not named in the record | activity change, % (concentration not given with the values) | 360,000 compounds, 0.56% hits | AID 651725, 2012; in the data active = activity change below about -65%; inconclusive = about -30% to -65%; inactive = above about -30%; note: % is set by controls: 0 for no effect and ±100 for the full control effect
Target sequence (O00167 whole entry, looked up): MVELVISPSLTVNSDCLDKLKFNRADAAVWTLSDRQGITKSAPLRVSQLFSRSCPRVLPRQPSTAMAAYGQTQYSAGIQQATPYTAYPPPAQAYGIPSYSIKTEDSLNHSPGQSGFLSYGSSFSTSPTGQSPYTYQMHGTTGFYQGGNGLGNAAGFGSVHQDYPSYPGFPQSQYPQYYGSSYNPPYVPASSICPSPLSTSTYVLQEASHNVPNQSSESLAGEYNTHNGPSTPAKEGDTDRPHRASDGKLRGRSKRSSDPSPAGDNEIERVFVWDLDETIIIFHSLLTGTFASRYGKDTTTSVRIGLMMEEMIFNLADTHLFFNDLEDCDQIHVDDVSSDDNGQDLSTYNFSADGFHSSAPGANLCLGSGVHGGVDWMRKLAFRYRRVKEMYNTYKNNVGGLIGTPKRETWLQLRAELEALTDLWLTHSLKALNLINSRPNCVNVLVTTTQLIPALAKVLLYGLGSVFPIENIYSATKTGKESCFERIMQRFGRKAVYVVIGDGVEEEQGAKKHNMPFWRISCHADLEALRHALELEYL
Target sequence (Q15475 whole entry, looked up): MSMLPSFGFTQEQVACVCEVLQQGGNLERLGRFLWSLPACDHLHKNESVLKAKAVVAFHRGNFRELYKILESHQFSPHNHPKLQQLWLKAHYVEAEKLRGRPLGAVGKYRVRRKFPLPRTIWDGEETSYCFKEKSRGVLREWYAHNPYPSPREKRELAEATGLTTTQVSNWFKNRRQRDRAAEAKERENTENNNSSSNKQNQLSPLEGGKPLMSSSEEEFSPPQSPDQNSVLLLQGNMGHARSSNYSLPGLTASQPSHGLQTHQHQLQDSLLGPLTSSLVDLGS
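GST-Six1 + His-Eya2 (5X stock: 250/500 nM); Tris pH 8.0, 300 mM NaCl, 0.05% BSA, 0.02% Tween 20; GSH donor/Ni acceptor beads; 1 h 37 °C dark; AlphaScreen readout.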
Sfp inh = qHTS Assay for Inhibitors of Bacillus subtilis Sfp phosphopantetheinyl transferase (PPTase). 4'-phosphopantetheinyl transferase ffp (Bacillus subtilis), Q9F4F7. Biochemical Sfp PPTase activity, qHTS. Potency, µM, for the others: max response, negative = inhibition, most hits filed as inhibitors. 310,000 compounds, 3.5% hits. AID 1490, 2009; active = well fitted inhibition curve with a large enough effect; inconclusive = small, poorly fitted or top-dose-only effect, or another doubt; inactive = no such curve, though single readings can be large or run the other way;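 note: the enzyme is Sfp with the accession as filed and its product quenches rhodamine fluorescence; potency is the fitted concentration of half-maximal effect; 0% = enzyme reaction without inhibitor and -100% = no enzyme wells; top concentration of the series not given in the record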
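Buffer: 50 mM Hepes-Na pH 7.6, 10 mM MgCl2, 0.01% Nonidet P-40, 0.01% BSA. Enzyme 15 nM, pre-exposed to compound 15 min; substrates then added and fluorescence change tracked over 30 min.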
CtBP-E1A blk = qHTS Assay for Inhibitors of the CtBP/E1A Interaction | CtBP / adenovirus E1A interaction (AlphaScreen) | AlphaScreen GST-E1A/His-CtBP binding, 1536-well; stronger effect = lower value; control for the full effect not named in the record | activity change, % (test concentration not listed) | 340,000 compounds, 0.49% hits | AID 651724, 2012; in the data active means activity change below about -65%; inconclusive means about -30% to -65%; inactive means above about -30%; note: % is set by controls: 0 for no effect and ±100 for the full control effect
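Protein mix (5X: 125 nM each GST-E1A, His-CtBP) was incubated with pinned compound 2 h at 37 deg C in dark, in 50 mM Tris pH 8.0 buffer with 300 mM NaCl. Glutathione donor and nickel acceptor beads followed; AlphaScreen signal read after 1 h.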
An asterisk follows results filed as active; u = inconclusive; x = not tested or not shown; & = joins results of further samples; [ ] = dose if it differs, or a comment.

SMILES	TRPV1 potentiator	PINK1 expr mod	D2 ag	D2 potentiator	Six1-Eya2 blk	Sfp inh	CtBP-E1A blk
COc1ccccc1/C=C/C(=O)OCC(=O)c1c(N)n(C)c(=O)n(C)c1=O	-2	7.3%	-0.2	-7	6	-2%	-3
C=CCn1c(N)c(C(=O)NC2CCCCC2)sc1=S	1	-4.6%[38.3 µM]	-2.7	-13	-11	16µM*	-7
CC(C)NC(=O)CCCC(=O)NC(C)C	-12	2.3%	0.5	6	5	0%	6
O=S(=O)(NCC1CCCO1)c1ccc(Cl)c(C(F)(F)F)c1 (stereo unspecified)	-12	0.6%[38.3 µM]	-2.7	-4	3	12%	5
Cc1[nH]c(=S)c(C#N)c(C)c1C(=O)Nc1ccccc1	-3	-0.7%	-0.7	-28	-28	45µM*	8
CC1(C(=O)NS(=O)(=O)c2ccccc2)CCN1C(=O)C/C=C/c1ccccc1 (stereo unspecified)	x	0.9%	2.8	-1	10	x	0
Cc1nnsc1-c1onc(C)c1C(=O)Nc1cc(Cl)cc(Cl)c1	19	u	-5.8	-15	2	-9%	x
C=CCNC(=S)NNC(=O)CCC(O)CCCCC (stereo unspecified)	13	0.0%	-2.9	-10	-9	-1%	-2
O=S(=O)(c1cnc[nH]1)N1CCCCCC1	4	-0.7%	-1.5	-7	2	14%	-1
C=CCn1c(SCc2ccc(C#N)cc2)nnc1-c1ccc(C)cc1	-9	0.5%[38.3 µM]	-0.2	0	3	14%	-1
CCOC(=O)C1CCCN(C(=O)c2cnn3c(C(F)(F)F)cc(-c4ccccc4)nc23)C1 (stereo unspecified)	7	1.3%[38.3 µM]	-1.3	-10	-4	24%	0
O=C(CCSc1ccc(Cl)cc1)c1ccco1	-6	0.9%	-7.0	-3	10	8%	x
O=C(O)c1cnc2ccc(Cl)cc2n1	x	13%	1.7	-9	-1	x	-7
COC(=O)c1ccc(-c2nc3ccc(C)cc3o2)cc1	x	6.2%	0.6	-9	2	26%	6
COc1ccccc1C(=O)NCCC(=O)N(C)CC(=O)Nc1ccc(Cl)cc1	1	4.5%	-2.6	-31	-4	x	7
COc1ccc(NC(=O)c2cc([N+](=O)[O-])ccc2NC(=O)CNC2CCCCC2C)c(OC)c1 (stereo unspecified)	1	6.2%	4.5	-8	-9	2%	18
S=c1[nH]nc(-c2ccccn2)n1/N=C/c1cccc2ccccc12	-7	0.8%	-3.9	-6	-67*	-12%	u
COC(=O)c1sc2ncccc2c1OCc1ccc(Cl)cc1	10	0.3%	-0.4	1	2	7%	-4
CCc1ccc(N2CC(C(=O)N/N=C/c3cccc([N+](=O)[O-])c3)CC2=O)cc1 (stereo unspecified)	-6	x	1.5	3	-9	-11%	-7
Cc1cc(C)cc(NC(=O)Nc2cnccn2)c1	-1	1.0%	-1.7	2	1	0%	2
CCS(=O)(=O)NC(C)C(c1cccs1)N1CCN(C)CC1 (stereo unspecified)	-5	3.9%[38.3 µM]	-1.6	3	5	2%	3
Cc1[nH]n(C(N)=S)c(=O)c1C(c1ccccc1)C(C#N)C#N (stereo unspecified)	-15	-1.1%	-4.9	-15	-13	-16%	-11
Cc1sc2nc(C3CC3)nc(SCC(=O)NCc3ccco3)c2c1C	1	x	6.4	-15	-9	u	11
CCC(=O)N1CCc2cc(S(=O)(=O)NCCN3CCC(C)CC3)ccc21	5	-2.5%	-3.1	-36	0	10%	1
CCCn1c(SCC(=O)NCc2cccs2)nc2c1c(=O)n(C)c(=O)n2C	3	-3.7%[38.3 µM]	-0.4	-9	5	12%	2
CC1=CC(=NOC(=O)c2cccc([N+](=O)[O-])c2)C=C(C)C1=O	13	u	0.2	u	5	5%	6
O=C(COC(=O)Cc1c(F)cccc1Cl)Nc1ccc2[nH]c(=O)[nH]c2c1	x	-0.2%	-0.6	0	-12	x	-19
COCC(=O)Nc1ccc(-c2cn3cccnc3n2)cc1	19	8.5%[38.3 µM]	-1.6	-5	16	13%	45
COC(=O)[C@H](C)NC(=O)Nc1cccc(Br)c1	7	-1.9%	-0.6	-11	-8	2%	-16
CC(c1ccon1)N(C)Cc1cn(C)nc1-c1ccc2c(c1)OCCO2 (stereo unspecified)	2	2.8%	-2.0	4	8	3%	3
Cc1cc2[nH]c(=O)c(=O)[nH]c2cc1S(=O)(=O)N1CCN(c2cccc(Cl)c2)CC1	-19	13%&14%	0.6	-3	-18	21%	-10
CCOc1ccc(NC(=S)N(CCc2c(C)[nH]c3ccc(C)cc23)Cc2ccncc2)cc1	18	2.3%	-5.2	3	-14	7%	u
COC(=O)C1(CC2CC(c3ccncc3)=NO2)CCN(C(=O)OC(C)(C)C)CC1 (stereo unspecified)	-30	-0.2%	-4.0	-9	1	x	3
Nc1ccc2nc(C3CCCCC3)[nH]c2c1	7	1.9%	-3.0	-2	2	9%	0
Cc1c2c(n3c(nc4ccccc43)c1C#N)N(CCN(C)C)CC2	4	-0.8%	-3.7	-4	-4	6%	-8
COCc1ccc(C(=O)Nc2ccc(C(=O)O)cc2)o1	2	-0.1%	-2.5	-3	2	26%	-12
Nc1nc(Cl)nc2c1ncn2C1OCC(O)C(O)C1O (stereo unspecified)	x	0.0%	-3.9	-25	-6	x	-2
COc1ccc(OCC(=O)N2CCN(S(=O)(=O)c3ccc4c(c3)OCCO4)CC2)cc1	x	-0.3%	-1.5	-15	0	x	-6
Cc1ccc(CNC(=O)CSc2nc3ccsc3c(=O)n2Cc2ccccn2)cc1	11	3.6%	-2.1	11	11	9%	0
c1ccc(SC23CCCCN(CCC2)[C@]32CO2)cc1 (stereo partly specified)	x	-0.6%	x	x	-5	x	-28
Cc1ccc2c(c1)N(CCCC(=O)NCCC1=CCCCC1)C(=O)CO2	-11	-0.5%[38.3 µM]	-0.1	-6	3	-1%	6
CC(C)(C)N(NC(=O)Nc1ccccc1)C(=O)c1ccccc1	7	2.9%	2.6	-3	1	9%	19
Cc1cc(=O)[nH]c(NN=Cc2c(Cl)cccc2Cl)n1	x	-1.3%	1.6	-14	-3	x	-2
Cc1ccc(-c2cc(C(=O)NCCN3CCOCC3)c3ccccc3n2)o1	-6	-0.3%	-2.8	-1	-2	-20%	1
O=C(CN1CCN(c2cccc(Cl)c2)CC1)NCc1ccccc1	-8	4.5%	-0.5	-4	11	4%	x
Cc1csc(SCC(=O)Nc2nnc(C)s2)n1	14	-3.2%	-3.3	-3	9	5%	1
Cc1nnc2sc(-c3ccncc3)nn12	-3	-1.5%	-0.2	13	-7	-3%	-7
CC(C)Sc1nnc2n(CCc3ccccc3)c(=O)c3c4c(sc3n12)COC(C)(C)C4	x	10.0%	-3.3	2	2	x	3
CC1(C)Cc2sc3c(=O)[nH]c(=S)[nH]c3c2CO1	-3	0.2%	-2.1	-8	7	28µM*	5
COc1ccccc1C(=O)C(=O)c1ccccc1OC	x	3.6%	-0.8	-2	-2	x	5
COC(=O)CSC1=NS(=O)(=O)c2ccccc21	7	4.9%	-9.0	11	-4	3.5µM*	-3
Cc1cc2c(cc1S(=O)(=O)NCCc1ccccc1)NC(=O)CO2	0	-1.0%	-2.2	1	0	x	-4
COc1ccc(S(=O)(=O)N2CCOCC2)cc1NC(=O)CCc1c[nH]c2ccccc12	-5	-0.8%	1.2	2	-5	7%	1
CC1=CC=CN2C1=NC(=O)CC2(C)C(=O)N(CC(=O)NC1CCCC1)c1ccccc1C (stereo unspecified)	-2	-0.5%	4.2	-3	7	10%	-3
COc1ccc(OC)c(NC(=O)CSc2nnnn2C)c1	5	-0.9%	-4.7	-5	5	15%	9
CN1CCN(C(=O)CNC(=O)C23CC4CC(CC(C4)C2)C3)CC1	x	1.2%	-1.6	0	0	x	2
NC(=S)N/N=C/c1ccc2c(c1)OCCO2	-8	-1.9%	-3.6	-13	-15	-22%	-5
O=C(NNc1ccccc1F)C1CCC1	x	2.0%	2.0	10	4	-3%	8
COc1ccc(OC)c(-c2cc(C3CCN(c4ncccc4[N+](=O)[O-])CC3)[nH]n2)c1	25	-1.7%	-4.6	-22	u	0%	-22
O=C(O)c1cc(S(=O)(=O)N2CCCCCC2)c(Cl)cc1Cl	-3	-1.0%[38.3 µM]	-0.3	-7	1	6%	-21

(list continues)
SMILES	TRPV1 potentiator	PINK1 expr mod	D2 ag	D2 potentiator	Six1-Eya2 blk	Sfp inh	CtBP-E1A blk
COc1ccc(C(NC(=O)c2ccco2)c2ccc(OC)c(OC)c2)cc1 (stereo unspecified)	20	0.1%	-1.7	4	7	4%	-6
Fc1ccc(C2=CC(c3ccco3)n3nnnc3N2)cc1 (stereo unspecified)	9	1.4%	3.0	-2	1	-22%	-2
CCC1(c2ccc(Cl)cc2)NC(=O)N(CC(=O)NC2CCCCCC2)C1=O (stereo unspecified)	-13	0.4%	-3.4	0	-3	x	7
CN1CCN(CC#CCn2c3ccccc3c3ccccc32)CC1	15	0.4%[38.3 µM]	3.4	-11	-12	4%	-16
CC(=O)N1Cc2ccccc2CC1C(=O)N1CCN(c2ccccc2)CC1 (stereo unspecified)	u	0.8%	-0.1	-5	-1	6%	1
Oc1ccc(/C=N/NC(=S)Nc2cccnc2)cc1	-6	1.5%	-3.7	-7	-8	10%	x

An excerpt from above in order of heavy-atom count, rising:
SMILES	TRPV1 potentiator	PINK1 expr mod	D2 ag	D2 potentiator	Six1-Eya2 blk	Sfp inh	CtBP-E1A blk
Oc1ccc(/C=N/NC(=S)Nc2cccnc2)cc1	-6	1.5%	-3.7	-7	-8	10%	x
Fc1ccc(C2=CC(c3ccco3)n3nnnc3N2)cc1 (stereo unspecified)	9	1.4%	3.0	-2	1	-22%	-2
CN1CCN(CC#CCn2c3ccccc3c3ccccc32)CC1	15	0.4%[38.3 µM]	3.4	-11	-12	4%	-16
CCC1(c2ccc(Cl)cc2)NC(=O)N(CC(=O)NC2CCCCCC2)C1=O (stereo unspecified)	-13	0.4%	-3.4	0	-3	x	7

An unsorted share of the library. About 3.7% of those tested had a hit in this group.
